RN4220 kill = S. aureus RN4220 growth inhibition; OD600, 16 h; inhibition, % (test concentration not listed); actives 0.33% (n = 330,000);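 active = z-score of -3 or lower and OD600 up to 0.18 on both plates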;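 note: plate controls were untreated cells for no effect and reference antibiotic for full effect; stock transfer was 100 nL into about 80 µL; one replicate is shown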
BJeLR viability = kills HRASV12-expressing BJeLR cells; BJeLR (HRASV12) viability, CellTiter-Glo ATP luminescence, 48 h; reference of the scale not given here; inhibition, % (no concentration beside the values); actives 0.17% (n = 300,000); AID 1554;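 active = replicate mean above 50%; inconclusive = above 50% but judged a plate artefact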;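 note: 50 nL library stock added to about 25 µL; numbers are from one replicate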
Bead autofluor = flagged as autofluorescent in microsphere protease counterscreen; compound autofluorescence counterscreen, microsphere flow cytometry; active compounds read high; fluorescence intensity (test concentration not listed); actives 3.1% (n = 360,000); AID 624483;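 active = at least 3 SD above the mean of all compounds, about 16000 in these data; inconclusive = too few beads counted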;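 note: 100 nL of 1 mM stock went into each well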
Sa ugtP lethal = kills S. aureus RN4220 lacking UgtP; S. aureus RN4220 ugtP deletion, OD600 growth, 16 h; some inactives read as strong as hits; growth inhibition, % (no concentration beside the values); actives 0.54% (n = 330,000);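 active = z-score under -3 and OD600 up to 0.15 on both plates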;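 note: plate controls were untreated wells for no effect and antibiotic for full effect; wells of about 80 µL received 100 nL stock; the first replicate is given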
Mtb hypoxia inh = inhibitors of hypoxia-regulated fluorescent reporter in Mycobacterium tuberculosis. M. tuberculosis hypoxia-regulated fluorescent reporter, fluorescence. fluorescence inhibition, % (no concentration beside the values). actives 0.1% (n = 300,000). AID 1159583;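 active = 35 to 45% if threefold the growth effect, above 45% if 1.5-fold the growth effect; inactive = the rest, general growth blockers included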;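 note: wells of about 50 µL received 100 nL stock; 0% = vehicle wells and 100% = reference inhibitor wells; whole bacteria with a GFP reporter of the hypoxia response; strong numbers were not always called active; many hits fall short of the cut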
PrP 5UTR inh = inhibition of PrP 5' UTR reporter expression. cell-based PrP 5' UTR mRNA reporter, plate reader. inhibition, % (test concentration not listed). actives 0.35% (n = 340,000). AID 488862;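 active = every replicate at 50% or more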;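 note: 0 = median of the neutral control wells; tested in H4 reporter cells; numbers are from one replicate; inactives centre near -14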
Mtb hypoxia inh growth = second read-out of Mtb hypoxia inh, no call of its own (marks repeat the call); growth inhibition, %; measured here: M. tuberculosis growth (absorbance);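 0% = vehicle and 100% = reference antibiotic; read after six days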
* hit, by the source's call; ? = inconclusive; · = no result given; & = joins results of further samples.

compound,RN4220 kill,BJeLR viability,Bead autofluor,Sa ugtP lethal,Mtb hypoxia inh,Mtb hypoxia inh growth,PrP 5UTR inh
Cn1cnnc1SCC(=O)Nc1ccc(Br)cc1F,6.4,13,7608,11,3,-3,-11
CCc1nnc(NC(=O)c2ccc(-c3cccc(C(F)(F)F)c3)o2)s1,2.8,1,9569,-13,5,16,-8
N/C(=N\NS(=O)(=O)c1ccccc1C(F)(F)F)c1ccccn1,6.4,-5,6091,3,5,2,-17
CSCc1ccc(C(=O)NCc2ccc(C)cc2)cc1,0.7,15,2087,4,-8,-1,-38
C=CC(Cc1ccccc1)N(Cc1ccccc1)S(=O)(=O)N(Cc1ccccc1)C(C=C)Cc1ccccc1 (stereo not given),2.0,·,·,1,8,2,·
O=C(CCc1nc2ccccc2c(=O)[nH]1)OCc1nnc(-c2ccccc2)o1,-0.1,-4,2593,-4,·,·,-31
CC1(C)N([O-])C(c2ccccc2)=C[N+](=O)C1(C)C,0.6,2,3248,-3,8,4,-18
FC(F)(F)c1cccnc1-n1cncn1,2.7,-9,4371,4,1,0,-7
O=S(=O)(CCc1ccncc1)c1ccc(Cl)cc1,4.1,-10,4057,2,6,1,-7
COc1cc(/C=N/N=C(N)N)ccc1OCc1ccc(Cl)cc1,·,-4,2689,·,·,·,-4
COC(=O)Cc1cc(=O)n2[nH]cnc2n1,7.0,11,3316,-1,13,9,-22
CC1CCN(C(=O)C(Cc2ccccc2)NS(=O)(=O)c2ccc3c(c2)oc(=O)n3C)CC1 (stereo not given),-2.1,·,5896,-5,3,-4,-13

Remaining list, next part:
compound,RN4220 kill,BJeLR viability,Bead autofluor,Sa ugtP lethal,Mtb hypoxia inh,Mtb hypoxia inh growth,PrP 5UTR inh
Cc1cccc(NC(=O)Nc2ccc(Br)cc2)n1,-5.6,-11,4030,-3,10,3,-69
O=C(COC(=O)c1cccnc1Cl)NC(=O)NC1CCCCC1,2.7,·,3869,6,3,1,-3
Nc1c(C=C2C=CC(=O)C=C2)c(=O)nc2sc(CC(=O)N3CCCCC3)nn12,·,-2,4212,·,·,·,-23
Cc1nnc(SCc2nc3ccccc3s2)n1N,1.5,7,4665,3,7,12,-13
CCOC(=O)c1c(NC(=O)Cn2cnc([N+](=O)[O-])n2)sc(C)c1C,-5.8,1,3320,20,2,-13,-5
Cc1nc(C(F)(F)F)c(C(=O)O)cc1-c1nc(-c2ccccc2)cs1,6.0,3,4012,2,9,6,-20
C/[N+]([O-])=C\C1C(=O)CC(C)(C)CC1=O,1.6,-1,3786,-1,4,0,-33
O=C(CN1CCC(NC(=O)c2ccco2)CC1)Nc1ccccc1[N+](=O)[O-],-4.4,-18,·,-6,7,-5,·
COc1ccccc1N1CCN(S(=O)(=O)c2ccc(Cl)cc2)CC1,5.7,2,3702,9,2,10,-13
CC1Cc2cc(/C(O)=C3\C(=O)C(=O)N(Cc4cccnc4)C3c3ccccc3F)ccc2O1 (stereo not given),1.1,-3,4419,-2,-9,9,-27
O=C1C2C3C=CC(C3)C2C(=O)N1N=Cc1cn(Cc2ccc(F)cc2)c2ccccc12 (stereo not given),-1.8,·,·,6,5,0,·
Cc1ccc(NC(=O)c2cc(-c3cccc(O)c3)on2)cc1C,-27,4,5510,-5,1,9,-43

More records follow.
compound,RN4220 kill,BJeLR viability,Bead autofluor,Sa ugtP lethal,Mtb hypoxia inh,Mtb hypoxia inh growth,PrP 5UTR inh
O=C(NN=CC1CC2CCC1C2)c1c[nH]c2ccccc12 (stereo not given),0.5,·,·,7,-5,8,·
COn1c(-c2ccccc2)nc2ncccc21,2.3,-6,2894,6,17,14,-15
O=C1CN=C(c2ccccc2F)c2cc(Cl)ccc2N1,10,0,5757,4,10,-4,-2
O=C(CCCN1C(=O)/C(=C\c2cccs2)SC1=S)Nc1ccc(O)cc1,0.5,1,3552,-7,3,12,-14
CCOC(=O)C(=CNc1cccc(C)c1C)C(=O)OCC,3.6,4,11391,-23,7,5,-28
O=C(C1=CC(c2ccc(C(F)(F)F)cc2)CC(OCCCCO)O1)N1CCOCC1 (stereo not given),8.4&9.1,·,·,5&2,5&9,0&8,·
Nc1nonc1-n1nnc(C(=O)NN=Cc2ccncc2)c1CSc1ccc(Cl)cc1,5.3,·,·,0,-4,-3,·
COCc1c(C(=O)OC)nnn1-c1ccccc1,0.3,-5,22960*,-5,5,4,-29
COc1ccc(OC)c(C2=NNC(=NCc3ccc4c(c3)OCO4)SC2)c1,-4.4,-8,2841,-7,8,-3,-32
O=C(Nc1ccc(F)cc1F)NC1CC1,1.3,-19,1903,4,2,0,-3
Cc1ccc(S(=O)(=O)N=C2NC(=O)C(=Cc3cccnc3)S2)cc1,12,·,·,7,6,14,·
COC(=O)c1ccc(SCc2ccccc2)nc1,8.5,1,6092,4,-7,5,·

(further entries)
compound,RN4220 kill,BJeLR viability,Bead autofluor,Sa ugtP lethal,Mtb hypoxia inh,Mtb hypoxia inh growth,PrP 5UTR inh
O=S(=O)(NCC(c1cccnc1)N1CCN(c2ccc(F)cc2)CC1)c1cc(F)ccc1F (stereo not given),11,1,8623,-2,11,3,-22
COc1ccc(S(=O)(=O)n2nc(C)cc2C)cc1OC,6.3,-9,3818,3,10,8,-15
Cc1ccc(-n2ncc3c(NCc4ccc5c(c4)OCO5)ncnc32)c(C)c1,-7.9,6,5531,-2,-3,7,-24
Cc1ccc(S(=O)(=O)N2CCOC2CNC(=O)C(=O)NCc2ccccc2)cc1 (stereo not given),2.0,2,5670,0,7,7,-24
CSc1ccc(S(=O)(=O)NC2CCCCCC2)cc1,4.5,-12,5863,0,3,5,-50
N/C(=N\c1nc2ccccc2o1)NC(=O)c1cccc(Br)c1,-3.1,5,7042,-11,-11,-7,·
CCOC(=O)C1(CCC(C)=NNC(N)=O)CC(C)(C)OC1=O (stereo not given),-0.7,·,·,5,5,-4,·
COC(=O)Cn1c(CCS(=O)(=O)c2ccc(C)cc2)nc2ccccc21,1.4,3,6510,0,2,7,-11
CC1=NN(c2nc(-c3ccc(C)cc3)cs2)C(=O)C1N=Nc1cccc(C)c1 (stereo not given),8.7,24,2237,11,7,-2,-4
CC1NC(=O)[C@@]2(C)C(c3ccccc3)C3COc4ccccc4C3N2C1=O (stereo not given in full),3.7&4.3&-0.4&4.0,·,·,0&0&-3&7,0&1&12&8,-1&5&-1&11,·
Nc1cc(=O)[nH]c(SCC(=O)NC2CCCc3ccccc32)n1 (stereo not given),1.3,-1,4557,2,3,4,-10
Cn1c(/C=C/c2ccc(Cl)cc2)c([N+](=O)[O-])c(=O)n(C)c1=O,2.8,-4,3785,-3,4,1,2

(further entries)
compound,RN4220 kill,BJeLR viability,Bead autofluor,Sa ugtP lethal,Mtb hypoxia inh,Mtb hypoxia inh growth,PrP 5UTR inh
COC(=O)C1=CN(Cc2ccc(F)cc2)C=C(C(=O)OC)C1c1cc(OC)c(OC)c(OC)c1,2.4,7,3925,1,5,11,-6
O=C(Cn1cnc2c(nnn2-c2ccccc2)c1=O)NCCc1ccccc1,-4.8,8,6620,6,3,3,-32
CC(C)CNC(=S)NC(=O)c1csc([N+](=O)[O-])c1,0.8,-2,4494,29,11,3,-19
CCc1ccccc1N(C)S(=O)(=O)c1ccc2[nH]cc(C(=O)N3CCc4ccccc43)c(=O)c2c1,8.7,0,1974,17,6,4,11
CN1CCN(C2CCN(c3ccc(Nc4nnc(Cl)c(Nc5ccccc5S(C)(=O)=O)n4)c(OC(CF)CF)c3)CC2)CC1,2.4,·,2742,0,2,10,-26
CC(OC(=O)CCN=C1NS(=O)(=O)c2ccccc21)C(=O)N(C)C1CCCCC1 (stereo not given),3.4,7,4999,2,7,-3,-5
COc1ccc(S(=O)(=O)N2CCOCC2)cc1NC(=O)COC(=O)c1ccc(C)s1,3.5,9,4677,4,4,-4,-56
COc1ccc(OCCOC(=O)C(C)NS(=O)(=O)c2ccc(NC(C)=O)cc2)cc1 (stereo not given),2.6,·,2919,7,-1,-13,-16
Fc1ccc2cnc(C3=CCCCC3)cc2c1,20,·,3861,32,6,6,-46
NC(=O)N/N=C/c1ccccc1OCC(=O)NCc1ccccc1,·,-2,2018,·,·,·,-8
COC1C=CC23c4cc5c(cc4CO[C@]2(O)CN(C)C3C1)OCO5 (stereo not given in full),6.7,·,·,7,19,13,·
COc1ccc(C(=O)Nc2cc3c(oc2=O)CCCC3=O)cc1,2.8,11,3955,9,18,-5,-11

Next part
compound,RN4220 kill,BJeLR viability,Bead autofluor,Sa ugtP lethal,Mtb hypoxia inh,Mtb hypoxia inh growth,PrP 5UTR inh
CC(C)C(=O)N1CCN(c2ccccc2NC(=O)c2cccc3ccccc23)CC1,·,-3,?,·,·,·,-8
CCOc1ccc(N2CC(C(=O)Nc3ccc(OC)c(S(=O)(=O)N4CCCCC4)c3)CC2=O)cc1 (stereo not given),1.0,-2,4844,1,-3,-4,-25
CCOCCCn1c(=S)[nH]c2cc(C(=O)N3CCN(c4ccccc4)CC3)ccc2c1=O,2.0,1,5315,12,3,7,-13
COc1cccc(OC)c1C(=O)Oc1ccc2c(c1)O/C(=C\c1ccncc1)C2=O,1.4,-2,2139,-10,2,-2,-9
COC(=O)c1c(C)[nH]c(C(C)=O)c1C,2.4,7,2193,0,·,·,-2
CCc1[nH]nc2c1C(c1ccc(Br)s1)C(C#N)=C(N)O2 (stereo not given),9.1,·,3147,-2,2,-6,-24
COc1ccccc1NC(=O)c1ccc(S(=O)(=O)N2CCCC2)cc1,6.3,1,5654,-9,-4,-7,-17
Cc1ccccc1NCN1C(=O)C2CCC(C)(C1=O)C2(C)C (stereo not given),0.0,-4,4650,-8,0,-6,-26
COc1cccc(-c2nc(-c3ccccc3)[nH]c(=O)c2C#N)c1,23,1,3701,18,-65,-17,-7
OCC1(CCOc2ccccc2)CCN(CC2=Cc3cc(Cl)ccc3OC2)CC1,4.4,0,5230,-8,10,6,-14
O=[N+]([O-])c1cc2c(c(CSc3nnnn3-c3ccc(O)cc3)c1)OCOC2,14,-12,8019,9,-1,8,-6
CN(C(=O)COC(=O)c1cc2ccccc2cc1O)c1c(N)n(Cc2ccccc2)c(=O)[nH]c1=O,-0.9,-4,4222,13,-1,-7,-19
CC1C/C(=N/NC(=O)c2cccs2)CC(C)(C)C1 (stereo not given),·,-2,22985*,·,·,·,-31
